SARS PLP yeast: qHTS of Yeast-based Assay for SARS-CoV PLP; S. cerevisiae expressing SARS-CoV PLpro, growth rescue; control for the full effect not named in the record; Potency, µM (highest dose often 32.9 µM), for inactives: at the highest dose activity, positive = growth rescue; actives 0.19% (n = 330,000); further: 0% is about no effect; nearly all actives have a fitted effect of over 55% in size; growth read by luminescence after 48 h
Cruzain inh noDet: qHTS Assay for Promiscuous and Specific Inhibitors of Cruzain (without detergent) | Cruzipain (Trypanosoma cruzi), P25779 | purified cruzain, Z-FR-AMC fluorescence, no detergent | Potency, µM, without a hit: max response, negative = inhibition, actives largely listed as inhibitors | actives 2.3% (n = 200,000); active means well fitted curve in the direction sought with a large enough effect; inconclusive means small, poorly fitted or top-dose-only effect, or another doubt; inactive means no such curve, though single readings can be large; an effect the other way counts as inactive or inconclusive;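 further: plate controls were enzyme without inhibitor for no effect and buffer without enzyme for full effect; nearly all actives have a fitted effect of over 40% in size; top concentration of the series not given in the record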
Target sequence (P25779 123-467 limits assumed): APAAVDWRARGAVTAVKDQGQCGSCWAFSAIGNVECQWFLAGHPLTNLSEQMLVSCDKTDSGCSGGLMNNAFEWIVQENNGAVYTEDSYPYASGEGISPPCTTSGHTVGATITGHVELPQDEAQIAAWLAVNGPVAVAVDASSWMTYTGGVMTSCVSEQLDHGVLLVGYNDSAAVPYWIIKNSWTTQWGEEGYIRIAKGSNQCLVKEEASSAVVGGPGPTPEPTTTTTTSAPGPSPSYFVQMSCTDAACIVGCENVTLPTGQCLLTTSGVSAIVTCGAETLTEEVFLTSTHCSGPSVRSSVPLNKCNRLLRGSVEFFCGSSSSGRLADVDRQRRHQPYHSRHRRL
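Detergent-free condition (0.00005% Triton X-100) in acetate buffer pH 5.5 with DTT. 1.5 nM enzyme and compound were pre-mixed 15 min, then 2 uM Z-FR-AMC substrate added; reaction progress from fluorescence change between first and third reads (60 s).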
Lassa entry inh: qHTS for Inhibitors of binding or entry into cells for Lassa Virus; Lassa virus pseudotype entry inhibition, cell reporter; control for the full effect not named in the record; Potency, µM (top dose mostly 37.9 µM), for the others: at the highest dose activity change, negative = inhibition, actives largely listed as inhibitors; actives 1.2% (n = 300,000); active means well fitted inhibition curve with a large enough effect; inconclusive means small, poorly fitted or top-dose-only effect, or effect the other way; inactive means flat fitted curve, though single readings scatter; tested in HEK293 cells; further: on the % scale 0 is the no-effect control and ±100 the full control effect; nearly all actives have a fitted effect of over 50% in size; luciferase read-out
RE007 growth inh: qHTS Assay for Inhibitors of the HIV-1 protein Vpr; S. pombe RE007 Vpr strain, BacTiter-Glo ATP luminescence, 24 h; control for the full effect not named in the record; Potency, µM (highest dose often 92.2 µM), inactives show top-dose activity change, negative = less growth; actives 0.21% (n = 360,000); active = well fitted falling curve with a large enough effect; inconclusive = small, poorly fitted or top-dose-only effect; inactive = no such curve, though single readings can be large or run the other way;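 further: on the % scale 0 is the no-effect control and ±100 the full control effect; nearly all actives have a fitted effect of over 50% in size; the assay follows cell death caused by Vpr and the record does not say whether a fall means rescue or toxicity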
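Fission yeast RE007 carrying one integrated HIV-1 vpr copy, seeded at OD 0.01 in PMG+AL medium with 23 nL pinned compound. Grown 24 h at 30 degrees; viability read by BacTiter-Glo luminescence after 5 min.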
MARV entry inh: qHTS for inhibitors of binding or entry into cells for Marburg Virus | Marburg virus pseudotyped entry inhibition, cell reporter; control for the full effect not named in the record; about a third of the inactives were read at about 46 µM | Potency, µM (top dose mostly 37.8 µM), without a hit: at the highest dose activity change, negative = inhibition, usual class: inhibitors | actives 1.8% (n = 300,000); active = well fitted inhibition curve with a large enough effect; inconclusive = small, poorly fitted or top-dose-only effect, or effect the other way; inactive = flat fitted curve, though single readings scatter; tested in HEK293 cells; about a fifth of its hits are not listed in these tables; further: on the % scale 0 is the no-effect control and ±100 the full control effect; luciferase read-out
StopGo reporter: High Throughput Screening for Foot and Mouth Disease Virus Antivirals; human cells with a luciferase reporter of 2A StopGo recoding; control for the full effect not named in the record; Potency, µM (top dose mostly 57.9 µM), for the others: top-dose signal change, negative = less light; actives 1.2% (n = 410,000); active = well fitted falling curve with a large enough effect; inconclusive = small, poorly fitted or top-dose-only effect; inactive = no such curve, though single readings can be large or run the other way; tested in HEK293T cells; further: on the % scale 0 is the no-effect control and ±100 the full control effect; nearly all actives have a fitted effect of over 45% in size; luciferase light after 4 h
NS1 inh: qHTS Assay for Inhibitors of Influenza NS1 Protein Function; AID 2326, 2010; actives 0.4% (n = 270,000); S. cerevisiae slowed by influenza A NS1, growth recovery by OD600; Potency, µM (titrated, usually from 46.1 µM), without a hit: at the top dose activity, positive = more growth; further: actives are rising curves; nearly all actives have a fitted effect of over 50% in size
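Recovery from NS1-induced slow growth read by OD600 in budding yeast switched to galactose assay medium (pH 6.0, -URA) at 1:100 dilution. Compound 23 nl per well; the matching strain lacking NS1 serves as control.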
Cruzain Triton: qHTS Assay for Promiscuous and Specific Inhibitors of Cruzain (with detergent); AID 1478, 2009; Potency, µM, for inactives: max response, negative = inhibition, actives largely listed as inhibitors; purified cruzain, Z-FR-AMC fluorescence, 0.01% Triton; actives 0.43% (n = 200,000); active means well fitted curve in the direction sought with a large enough effect; inconclusive means small, poorly fitted or top-dose-only effect, or another doubt; inactive means no such curve, though single readings can be large; an effect the other way counts as inactive or inconclusive;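 further: plate controls were neutral wells for no effect and buffer without enzyme for full effect; nearly all actives have a fitted effect of over 40% in size; top concentration of the series not given in the record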
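Purified cruzain (1.5 nM final) was preincubated with compounds for 15 min at room temperature in 100 mM sodium acetate pH 5.5, 5 mM DTT, 0.01% Triton X-100. Reaction started with 2 uM Z-FR-AMC; AMC fluorescence change over 60 s gave activity.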
* hit, by the source's call; ? = inconclusive; . = no result given; & = joins results of further samples; [ ] = dose if it differs, or a comment. Unless noted, the call rests on the fitted dose curve; in most records, active means well fitted rising curve with a large enough effect; inconclusive means small, poorly fitted or top-dose-only effect; inactive means no such curve, though single readings can be large or run the other way. Potency means the concentration at half of the fitted maximal effect.

structure,SARS PLP yeast,Cruzain inh noDet,Lassa entry inh,RE007 growth inh,MARV entry inh,StopGo reporter,NS1 inh,Cruzain Triton
CC(=O)c1ccc(NC(=O)CSc2nnc(C3CC3)n2C2CC2)cc1,2%,.,-20%[46.1 µM],5%,8%[46.1 µM],-14%,.,.
COc1ccc(NC(=O)N2CCN(CCC#N)CC2)cc1,1%,10%,-17%,4%,?,-13%,3%,2.1%
CC(C)(C)n1nnnc1C(c1ccc2ncccc2c1)N1CCSCC1 (stereo not given),-6%,7.9µM*,7%,5%,11%,.,-12%,0.7%
Cc1cccc(N2C(=S)NC3c4cc(Cl)ccc4OC2(C)C3C(=O)N(C)C)c1 (stereo not given),?,.,11%,8%,-2%,38%[activator],.,.
COc1ccc(-n2c(SCc3ccccc3F)nc3c([nH]c4ccccc43)c2=O)cc1OC,.,24%,?,.,.,?,.,-3.6%
O=C(O)C(Oc1ccc2c(-c3ccccc3)cc(=O)oc2c1)c1ccccc1 (stereo not given),-1%,.,20%,8%,17%[46.1 µM],-7%,6%,.
Cc1ccc(/C=C2\SC(=S)N(CCC(=O)NCCCN3CCOCC3)C2=O)cc1,0%,.,4%[46.1 µM],2%,?,12%,-2%,.
CNc1cncc(C(=O)O)c1,2%,.,19%[46.1 µM],2%,-1%[46.1 µM],5%,.,.
Cc1ccc(S(=O)(=O)N2CCC(C(=O)OC(C)C(=O)NCc3ccccc3)CC2)cc1C (stereo not given),-3%,.,9%,-7%,23%,-26%,-25%,.
CCn1c(SCC(=O)Nc2cccc(C)n2)nnc1-c1ccco1,-10%,-5%,16%,-23%,-2%,-8%,-1%,-1.3%
CCOCCCNC(=S)N1CCN(Cc2ccc3c(c2)OCO3)CC1,1%,.,20%[46.1 µM],0%,-17%[46.1 µM],-13%,6%,.
O=C(CN(C(=O)CCC(=O)Nc1nccs1)c1ccc2c(c1)OCO2)NCC1CCCO1 (stereo not given),2%,10%,2%,18%,0%&19%,-12%,?,1.4%
Cc1ccc(N=C2SC(C(=O)O)CC(=O)N2C)cc1C (stereo not given),0%,.,1%,15%,14%[46.1 µM],15%,4%,.
CC(=C/c1ccccc1)/C=N/n1cnnc1,2%,-2%,3%,-20%[3.69 µM],0%,-8%,-42%,-1.8%
NS(=O)(=O)c1ccc(NC(=O)CCC2CCCCC2)cc1,-8%,?,15%,8%,-2%,.,-7%,-0.7%
CCOc1ccc2nc(SCc3cccc(C)c3)nc(C)c2c1,12%,-20%,1%,5%,-17%,73%[activator],?,-2.8%
N/C(Cc1cccs1)=N\OC(=O)COc1ccccc1,-3%,0%,14%,-25%,?,18%,-4%,0.2%
N#C/C(=C\c1ccco1)C(=O)Nc1cccc2ncccc12,16%,-3%,1%,7%,10%,-22%,-2%,-8.3%
O=C(NCc1nc2ccccc2[nH]1)C1CCCCC1,0%,.,.,17%,.,5%,0%,.
O=C1CCC([N+](=O)[O-])C(c2ccc(C(F)(F)F)cc2)N1 (stereo not given),.,.,26%,-10%,15%,1%,.,.
O=C(NNC(=O)c1ccc2nonc2c1)Nc1ccc(Cl)cc1,1%,.,-15%[46.1 µM],7%,-27%[46.1 µM],-2%,4%,.
Cc1ccc(C)c(N2CCN(C(=O)NCc3noc4ccccc34)CC2)c1,.,4%,-3%[46.1 µM],.,.,-13%,.,-9.1%
O=C(CCc1c[nH]c2ccccc12)NCc1ccc2c(c1)OCO2,-1%,0%,?,3%,-6%,21%,-3%,0.9%
CCOC(=O)C(NC(=O)CC)(N1CCc2ccccc2C1)C(F)(F)F (stereo not given),-5%,4%,0%,2%,-6%,-5%,8%,0.1%
CC1=[N+](C)N(c2ccccc2)C(=O)C1N=Cc1c(Cl)cccc1Cl (stereo not given),24%,-4%,.,5%,.,-22%,-7%,-2.6%
CCOC(=O)c1sc(NC(=O)C2CC2)nc1C,-13%,-19%,.,6%,.,7%,-47%,-1.6%
COc1ccc(C(=O)OCC(=O)c2ccc(Cl)s2)c(OC)c1OC,.,.,-29%,-18%,-1%,19%,.,.
COC(=O)C1=C(N)Oc2cc(C)[nH]c(=O)c2C1c1cccnc1 (stereo not given),9%,0%,-2%,2%,-2%,0%,-2%,0.9%
COc1ccccc1C(=O)Nc1c(C)n(C)n(-c2ccccc2)c1=O,5%,-3%,-5%,-22%,?,-15%,?,4.6%
CCCCC1CC(=O)NC1(C(=O)OCC)C(=O)OCC (stereo not given),.,.,16%,10%,18%,-18%,.,.
CO/N=C(\c1nonc1N)N1CCN(c2ccc([N+](=O)[O-])cc2Cl)CC1,1%,-7%,-1%,-16%,.,?,7%,-5.3%
CCOC(=O)c1c[nH]c2c(Cl)ccc(Cl)c2c1=O,-2%,2%,16%,?,?,-15%,-7%,-2.8%
CCOc1ccc(-c2cc(C(=O)NN=C3CCN(C)CC3)[nH]n2)cc1,-3%,.,?,19%,?,2%,.,.
NS(=O)(=O)c1ccc(NNC(=O)c2ccc(F)cc2F)cc1,2%,.,0%,-12%,0%,-8%,-2%,.
On1nnc2ccc3ccccc3c21,19%,1%,-3%,4%,?,-6%,5%,-1.6%
Clc1ccc(-c2nnc3n2CCCC3)cc1,0%,2%,0%,-11%,-21%,-5%,1%,2.0%
CC(C)c1[nH]nc2c1C(c1cccs1)C(C#N)=C(N)O2 (stereo not given),19%,1%,18%,12%,21%,?,-11%,-7.1%
COc1cccc(-n2cc(C(=O)NCc3cccc(Cl)c3)c3ccccc3c2=O)c1,.,2%,-13%[46.1 µM],.,.,26%,.,-4.8%
COc1cccc(CC(=O)OC(C)C(=O)NCc2ccc3c(c2)OCO3)c1 (stereo not given),3%,.,8%,-12%,-6%[46.1 µM],-8%,.,.
O=C(NCc1ccccc1)c1ccc2nc(-c3ccco3)c(-c3ccco3)nc2c1,5%,7.9µM*,-9%,-12%,-1%,0%,30%,?
CCCCN(C(=O)c1cc2c(s1)CCC2)c1c(N)n(CCCC)c(=O)[nH]c1=O,.,.,21%,-3%,8%[46.1 µM],-1%,.,.
COc1ccc(NS(=O)(=O)c2cnc(N)nc2)cc1Cl,.,-4%,?,.,.,16%,.,-0.3%
COCCCn1c(=S)[nH]c2ccc(N3CCOCC3)cc2c1=O,2%,-1%,-3%,5%,14%,10%,5%,-6.5%
Cc1cc(-c2ccc(Cl)cc2Cl)c(C#N)c(=O)[nH]1,2%,.,.,10%,.,18%,7%,.
CCN(CC)CCn1c(NCc2ccc(C)o2)nc2ccccc21,-6%,0%,19%,4%,?,-7%,0%,3.1%
N#CC(C(=O)NC1CC1)c1nc2ccccc2nc1N1CCN(C/C=C/c2ccccc2)CC1 (stereo not given),0%,-5%,?,-16%,0%&0%,-8%,5%,-2.9%
CCc1ccc2[nH]c(=O)c(C(c3nnnn3Cc3ccc(OC)cc3)N3CCOCC3)cc2c1 (stereo not given),0%,8%,19%,5%,-9%&-7%,5%,-9%,-5.9%
C[C@]12CCC3C(CCC4=CC(O)CC[C@@]43/C=N/O)C1(O)CCC2C1=CC(=O)OC1 (stereo not given in full),0%,.,.,1%,?,-17%,0%,.
CCCCN(C)C(=O)Cn1cnc2sc(C)c(S(=O)(=O)N3CCC(C)CC3)c2c1=O,.,6%,4%[46.1 µM],.,-15%[46.1 µM],-15%,.,-1.5%
CC(=O)NC(Cc1ccc(C)cc1)C(=O)NC1CCN(C(=O)c2ccc([N+](=O)[O-])cc2)CC1 (stereo not given),-5%,5%,4%,-15%,-1%,-25%,7%,-2.0%

New compounds follow
structure,SARS PLP yeast,Cruzain inh noDet,Lassa entry inh,RE007 growth inh,MARV entry inh,StopGo reporter,NS1 inh,Cruzain Triton
O=C(O)c1c(C(=O)N2N=C3/C(=C/c4ccccc4)CCCC3C2c2ccccc2)cccc1[N+](=O)[O-] (stereo not given),0%,.,?,3%,27%[46.1 µM],-1%,.,.
CCC(C)NC(=O)C1CCN(S(=O)(=O)N2CCC3(CC2)OCCO3)CC1 (stereo not given),-1%,.,-5%,-2%,3%,2%,.,.
CCCc1ccc2oc(C(=O)N3CCC(N4CCCC(O)C4)CC3)c(C)c2c1 (stereo not given),1%,.,.,-10%,.,22%,-1%,.
COc1cc(C(=O)NCc2cn3ccsc3n2)cc(OC)c1OC,.,.,-13%,6%,0%,5%,12%,.
COC(=O)CSc1nnc2n1C(C)(C)Cc1ccccc1-2,4%,-4%,20%,6%,14%,-3%,-8%,0.1%
CC(=O)Nc1ccc(S(=O)(=O)Oc2ccc(C=O)cc2)cc1,-2%,7%,3%,.,?,-13%,-1%,0.4%
FC(F)(F)c1cc(NC2CCCCC2)ccn1,1%,.,.,-14%,.,?,-6%,.

Assay outcomes from PubChem BioAssay.

An unsorted share of the library; overall some 4.7% were active at least once.
